RVFV N-RNA FP – inhibitors of RVFV nucleoprotein–RNA binding, primary screen, biochemical, fluorescence polarization; RVFV N-RNA binding; active compounds read low; % bound, % (no concentration beside the values); actives 0.1% (n = 20,000);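 active means between 0 and 58% in either replicate with normal brightness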;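 further: 100 nL library stock added to about 12 µL; 100% = protein and probe without compound and 0% = probe alone; numbers are from one replicate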
Target sequence (P21700 whole entry, looked up): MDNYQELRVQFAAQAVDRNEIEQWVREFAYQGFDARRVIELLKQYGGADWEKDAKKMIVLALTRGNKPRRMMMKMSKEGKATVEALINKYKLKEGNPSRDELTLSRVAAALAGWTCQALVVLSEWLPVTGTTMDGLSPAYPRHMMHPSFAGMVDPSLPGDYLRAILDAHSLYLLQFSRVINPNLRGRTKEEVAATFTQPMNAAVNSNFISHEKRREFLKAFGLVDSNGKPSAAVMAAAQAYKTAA
* hit, by the source's call; & = joins results of further samples.

SMILES	RVFV N-RNA FP
C[C@H]1O[C@@H](O[C@H]2[C@@H](O)C[C@H](O[C@H]3[C@@H](O)C[C@H](O[C@H]4CC[C@@]5(C)[C@H](CC[C@@H]6[C@@H]5C[C@@H](O)[C@]5(C)C(C7=CC(=O)OC7)CC[C@]65O)C4)O[C@@H]3C)O[C@@H]2C)C[C@H](O)[C@@H]1O (stereo not given in full)	108.4
CC(=O)c1c(C)[nH]n(-c2nc3ccccc3s2)c1=O	96.5
c1csc(CNc2ccc3c(c2)oc2ccccc23)c1	93.1
O=C(Cc1c(F)cccc1Cl)n1nnc2ccccc21	92.2
O=C(NCc1ccco1)c1cccc(-c2nnc(-c3ccccc3)o2)c1	92.7
NCCCC[C@H](N[C@@H](CCc1ccccc1)C(=O)O)C(=O)N1CCC[C@H]1C(=O)O	98.9
O=C(CC(NCc1ccco1)C(=O)O)Nc1cccc(C(F)(F)F)c1 (stereo not given)	109.5
CC(=O)Nc1ccc(C(F)(F)F)cc1N	96.0
O=C(/C=C/c1ccccc1)Nc1nnc(-c2ccc(Br)cc2)o1	98.5
CC(=O)Oc1cc2c(C(=O)NCC3CCCO3)c(C)oc2c2ccccc12 (stereo not given)	97.7
O=C(Nc1ccccc1)N1CCCC1	92.9
COC(=O)c1ccccc1NC(=O)NCc1ccccn1	95.5
O=C1/C(=C/c2cccs2)N=C(c2cccs2)N1Nc1ccccc1	90.1
CCOc1cc(CO)ccc1OCC(=O)Nc1ccc(C)c(Cl)c1	88.7
COc1cccc(OC)c1C(=O)NNc1ncc(C(F)(F)F)cc1Cl	89.6
S=c1[nH]nc(C2COc3ccccc3O2)o1 (stereo not given)	97.3
CC12C(=O)N(c3nccs3)C(=O)C1C1C=CC2C1 (stereo not given)	95.4
CC(C)(C)n1ncc2c(=O)n(CC(=O)NCc3ccc(F)cc3)cnc21	95.7
CCN(CC)C(=O)c1ccc(C(=O)c2cc(OC)ccc2OC)cc1	88.5
CCOC(=O)N=c1oc2cc(Cl)c(Cl)cc2o1	99.6
Cc1ccc2c(CC(=O)NC3CCCC3)coc2c1	93.4
Clc1ccc(CON=C(Cn2ccnc2)c2ccc(Cl)cc2Cl)c(Cl)c1	98.0
CCc1c(C)sc(NC(=S)n2cc(C)cn2)c1C(=O)OC	97.3
O=C(CNC1Cc2ccccc2C1)Nc1ccccc1N1CCOCC1	94.7
O=C(NCCN1CCOCC1)Nc1ccc(Cl)cc1Cl	101.3
More records follow.
SMILES	RVFV N-RNA FP
CCNC(=O)COc1ccccc1Cl	93.6
Cc1nn(-c2ccccc2)c(C)c1/C=C(\C#N)S(=O)(=O)c1ccccc1	90.9
O=C(O)c1cccnc1	103.6
CCN(C(=O)C12CC3CC(CC(C3)C1)C2)C1CCS(=O)(=O)C1 (stereo not given)	100.2
O=C(O)C1CC1(C(=O)O)C(=O)O (stereo not given)	99.7
COc1ccc(NC(=O)c2ccc(COCC(F)(F)C(F)F)cc2)cc1	102.9
COc1ccc(-c2c3c([nH]c(=O)c2C#N)-c2ccccc2CC3)cc1	88.3
CC(=O)n1c(=S)[nH]c2ccccc21	71.1
O=C(CCCc1ccccc1)Nc1ccccc1C(=O)O	90.4
O=C(Nc1ccc(N2CCCCC2)cc1)c1ccc(F)cc1	90.8
Cn1ccnc1S/C=C/C(=O)c1ccc(Cl)cc1	99.2
N#C/C(=C/c1ccc(C(=O)O)cc1)C(=O)Nc1ccccc1	90.1
O=C(CSc1nccn1-c1cccc(Cl)c1)Nc1ccccc1	88.7
CC/C(C)=N/Oc1nc(NC(=O)NS(=O)(=O)c2ccccc2Cl)nc(N(C)C)n1	93.0
COc1ccc2oc(=O)cc(-c3cc4ccccc4o3)c2c1	100.0
CC(C)(C)NC(=S)NN1C2CSC1CS2	95.8
COC(=O)Cc1nc(NC(=O)c2nc(-c3ccccc3)oc2C)sc1C	90.3
COC(=O)c1sc(NC(=O)c2cc3c(s2)CCCC3)nc1C	111.9
Cc1ccc(OCC(O)CNC(=O)c2ccccc2C(=O)O)cc1 (stereo not given)	104.6
Cc1cc(CNC(=S)Nc2ccc(S(N)(=O)=O)cc2)nn1C	106.8
CCOC(=O)Nc1cc(Cl)ccc1Cl	89.8
O=C(Nc1ccc(N2CCOCC2)c2nonc12)c1ccco1	113.2
CCOC(=O)N1CCN(Cc2cccc3ccccc23)CC1	107.7
CC1=NN(C(=O)c2ccccc2)C(C)(NN(C)c2ccccc2)C1 (stereo not given)	91.4
CN[C@H](CC(C)C)C(=O)N[C@H]1C(=O)N[C@@H](CC(N)=O)C(=O)N[C@H]2C(=O)N[C@H]3C(=O)N[C@H](C(=O)N[C@H](C(=O)O)c4cc(O)cc(O)c4-c4cc3ccc4O)[C@H](O)c3ccc(c(Cl)c3)Oc3cc2cc(c3O[C@@H]2O[C@H](CO)[C@@H](O)[C@H](O)[C@H]2O[C@H]2C[C@](C)(N)[C@H](O)[C@H](C)O2)Oc2ccc(cc2Cl)[C@H]1O	98.8
(list continues)
SMILES	RVFV N-RNA FP
CC(=O)OCC1=C(C(=O)[O-])N2C(=O)[C@@H](NC(=O)CCC[C@@H](N)C(=O)[O-])[C@H]2SC1.[Zn+2]	88.4
CS(=O)(=O)CS(=O)(=O)NNc1ncc(C(F)(F)F)cc1Cl	88.3
O=C(OCC(F)(F)C(F)F)c1ccc(O)cc1	97.7
CN(C)c1ccc(/C=N/NC(=O)N/N=C/c2ccc(N(C)C)cc2)cc1	98.3
O=C(CN1CCN(c2ccc(C(F)(F)F)cn2)CC1)c1ccccc1	92.1
CCN=C1S/C(=C\c2ccc(C(=O)OC)cc2)C(=O)N1CC	101.5
N#CC(C#N)=Cc1ccc(OCc2ccsc2C#N)cc1	92.9
CNc1nc(OC)nc(N2CCOCC2)n1	98.2
COc1ccc(N/C=C/C(=O)C(C)(C)C)cc1	88.6
CN(C)C(=S)Nc1ccc2c(c1)OCCO2	89.6
CCS(=O)(=O)Nc1cccc(C(=C2CCCCC2)c2cnc[nH]2)c1	98.3
c1ccc(CSc2ncccn2)cc1	108.0
c1ccc(CCCN2CCN(Cc3ccccc3)CC2)cc1	92.5
CCOC(=O)C1CCN(C(=O)c2ccccc2SCCOC)CC1	108.8
O=C(Oc1ccccc1)c1ccco1	94.6
O=C(N/N=C\c1ccco1)c1ccc(S(=O)(=O)N2CCCCCC2)cc1	86.5
c1ccc2c(c1)OCC(C1=NCCN1)O2 (stereo not given)	96.4&101.0
CS(=O)(=O)c1ccc2nc(NC(=O)Nc3ccccc3F)sc2c1	88.3
N/C(COc1ccccc1Cl)=N\O	94.0
CC(C)OC(=O)CCC/C=C\C[C@@H]1[C@@H](/C=C/C(O)COc2cccc(C(F)(F)F)c2)[C@H](O)C[C@@H]1O (stereo not given in full)	102.8
CSc1nc2ccccc2n1-c1ccccc1	93.7
CSc1n[nH]c(=O)n1-c1cccc(Cl)c1	90.4
CCOC(=O)N1CCc2c(sc(NC(=O)c3ccc(S(=O)(=O)N(C)C)cc3)c2C#N)C1	92.8
NCCc1ccc(O)cc1	93.0
CCOC(=O)CC(=O)N1CCSC1COc1ccccc1OC (stereo not given)	103.2
(listing goes on)
SMILES	RVFV N-RNA FP
CC(c1ccccc1)n1c(CCn2ncc3ccccc3c2=O)n[nH]c1=S (stereo not given)	97.9
Cn1c(=O)c(C(=O)N2CCN(Cc3ccccc3)CC2)cc2cccnc21	92.1
CCOC(=O)c1ccc2nc(/N=C/NOC(=O)c3cccs3)sc2c1	103.0
O=C(O)CCC/C=C\C[C@@H]1[C@@H](/C=C/[C@H](O)C2Cc3ccccc3C2)[C@@H](F)C[C@@H]1O	98.7
C=CCN(CC=C)C(=O)Cc1ccc(F)cc1	97.9
O=S(=O)(/N=C(\N/N=C/c1ccccc1O)N1CCCC1)c1ccccc1	101.5
CCOc1ccccc1N1CCN(Cc2ccsc2)CC1	95.0
CCOC(=O)/C(C#N)=C/c1cc(C)n(-c2ccc(C)cc2)c1C	93.1
CCOC(=O)N1CCN(S(=O)(=O)c2ccc(Br)s2)CC1	101.3
CC1CCN(C(=S)NC(=O)C2CCCCC2)CC1	110.6
Cn1c(COc2ccc3c(c2)OCO3)n[nH]c1=S	99.8
CCn1c(=NC(C)=O)sc2ccccc21	97.1
COc1ccc(CCC(N)=O)cc1OC	93.9
Cn1cnnc1SCc1ccc(Cl)cc1	97.6
O=S(NC1CCCCC1)C12CC3CC(CC(C3)C1)C2 (stereo not given)	93.6
Cc1cccc(C(=O)NCN2CCN(c3ccccc3C#N)CC2)c1	105.6
C=CCn1cnc2c(nnn2-c2ccc(C)c(C)c2)c1=O	97.6
COc1cc(N)c(-c2nc3ccccc3[nH]2)cc1OC	96.3
Cc1ccc(C(=O)NC(=O)CSc2n[nH]c(N)n2)cc1	93.6
Cc1cc(N2CCCC2=O)c(N)cc1N	98.0
C=CCc1cc2c(C)cc(=O)oc2c(I)c1O	96.5
CC1(C)CC(=O)C(N=Nc2cccc(F)c2C#N)=C(O)C1	94.1
CSc1nsc(SCC(=O)c2ccccc2)n1	100.3
CC(=O)Oc1cccc(C(=O)N(C(C)C)C(C)C)c1	89.1
O=C(c1cccc(-c2nnc(-c3ccccc3)o2)c1)N1CCCCC1	96.0
The list goes on.
SMILES	RVFV N-RNA FP
CSc1ccc(C=C(C#N)C#N)s1	98.8
CN(C)CCNC(=O)Nc1ccc(F)cc1F	100.1
C[C@H]1CC2C3CCC4=CC(=O)C=C[C@]4(C)[C@@]3(F)[C@@H](O)C[C@]2(C)[C@@]1(O)C(=O)COP(=O)(O)O (stereo not given in full)	98.9
Cc1cc(C)cc(NC(=O)Nc2ccccc2)c1	81.7
O=C(Cc1coc2ccc3ccccc3c12)N1CCN(c2ccccc2)CC1	95.1
COc1ccc(N=Cc2c(O)n(C3CCCCC3)c(=O)n(C3CCCCC3)c2=O)cc1	104.0
CN1CCN(S(=O)(=O)c2ccc(NC(=O)c3ccc(Br)s3)cc2)CC1	96.6
CC(=O)OCC(=O)[C@@]1(O)CC[C@H]2[C@@H]3CCC4=CC(=O)CC[C@]4(C)[C@H]3C(=O)C[C@@]21C	99.2&87.9
CN(C(=O)N1CCN(c2ccccn2)CC1)c1ccccc1	98.6
Cc1cc2oc(=O)cc(-c3cc4ccccc4o3)c2cc1OCC#N	92.4
COc1ccc2c(=O)c3c(oc2c1)C(=O)N(CCN1CCOCC1)C3c1ccccc1 (stereo not given)	94.8
CCSc1nc2sc3c(c2c(=O)n1CC)CCCC3	110.5
CC(=O)Oc1ccccc1C(=O)Nc1ncc([N+](=O)[O-])s1	94.3
COc1cnn(C2CCCCC2)c(=O)c1Cl	98.6
CC1CC(=O)c2cc(Cl)ccc2S1 (stereo not given)	93.7
CCN(Cc1ccccc1)C(=O)COC	98.3
CC1SC(C)C(=O)N(CC(=O)Nc2ccccc2F)C1=O (stereo not given)	102.2
CCCC[N+]1(C)C2CC(OC(=O)[C@H](CO)c3ccccc3)CC1C1OC12 (stereo not given in full)	101.1
O=C(O)c1cc2ccccc2n1-c1ccccc1	95.5
O=C(Cc1ccc(Br)cc1)Nc1ccc(-c2nnc(-c3ccccc3)o2)cc1	92.2
CC(C)Cn1c(N)c(C(=O)NCc2cccs2)c2nc3ccccc3nc21	101.7
Cc1cc(C(=O)Nc2sc(C)c(C)c2C(=O)NCc2cccnc2)no1	95.7
CCCOc1ccc(Cl)cc1C(=O)O	87.3
CCCCN1C(=O)C(O)(CC(=O)c2ccc3c(c2)OCCO3)c2ccccc21 (stereo not given)	101.2
CN(c1ccc(Cl)cc1)c1nc(O)c(C2=c3cc(F)ccc3=NC2=O)s1	95.1
Next section
SMILES	RVFV N-RNA FP
O=S(=O)(Cc1cccc(C(F)(F)F)c1)NCc1csc(-c2cccs2)n1	89.8
CCOC(=O)c1[nH]c(C)c(C(=O)N2CCCC(C)C2)c1C (stereo not given)	97.0
Cc1cccc(N2C(=O)CC(SCc3nc4ccccc4[nH]3)C2=O)c1 (stereo not given)	86.8
c1ccc(NNc2nncc(-c3ccccc3)n2)cc1	97.3
O=c1[nH]c(-c2ccccc2)nc(=S)[nH]1	89.6
Cc1cc(C)c(C(=O)c2ccc(C(=O)N(C)C)cc2)c(C)c1	100.3
COc1cnn(-c2ccccc2)c(=O)c1N(C)C	91.4
CCOC(=O)C1CCN(/C=C(\C#N)S(=O)(=O)c2ccc(Cl)cc2)CC1	96.4
c1ccc(C2CN3CCSC3=N2)cc1 (stereo not given)	98.0&93.2
Cc1cccc(C2=NN3C(=O)c4ccccc4C3C2)c1 (stereo not given)	90.1
COC(=O)c1c(C(=O)OC)c(C)n(Cc2cccnc2)c1C	96.5
COCCNC(=O)c1cc2c(=O)n3cccc(C)c3nc2n(Cc2cccnc2)c1=N	110.6
O=C(NCCc1c[nH]c2ccccc12)NC1CC(=O)N(c2ccccc2)C1 (stereo not given)	95.2
COc1ccccc1CCNC(=O)c1ccoc1C	94.8
COc1ccc(N2C(=O)CSCC2=O)cc1OC	98.6
CCOC(=O)c1csc(NC(=O)CN2CCOCC2)n1	99.7
COC(=O)c1noc(C)c1-c1ccnn1S(=O)(=O)c1cccc(C(F)(F)F)c1	93.8

Compound activity: PubChem BioAssay, ICCB-Longwood Screening Facility, Harvard Medical School

Some of the compounds tested; the hit share may differ from the screen's.
